DUX4 txn inh: DUX4-mediated transcription inhibition; activity change, negative = inhibition, % (no concentration beside the values); 293T-iDUX4 ZSCAN4-Gaussia luciferase reporter, 24 h; stronger effect = lower value; 0.8% of 37,000 active;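 active = -10% or lower and over 25 points stronger than a control reporter; inconclusive = -10% or lower with a smaller gap; inactive = above -10%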;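 also: 0% = median of neutral control wells and -100% = median of positive control wells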
DUX4 txn inh difference: recorded beside DUX4 txn inh, whose call it bears; Gaussia minus Italica difference, %; measured here: selective DUX4 reporter inhibition;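 worked out from the two reporters; negative = selective loss of the DUX4 reporter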
DUX4 txn inh control: second read-out of DUX4 txn inh, no call of its own (marks repeat the call); activity change, negative = inhibition, %; measured here: Italica tet-on control reporter;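 0 = neutral control and -100 = positive control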
The depositor's hits bear a star; ? = inconclusive; . = no result given; & = joins results of further samples.

SMILES	DUX4 txn inh	DUX4 txn inh difference	DUX4 txn inh control
O=C([C@@H]1[C@@H](CO)[C@@H]2Cn3c(ccc(-c4cncnc4)c3=O)[C@@H]2N1CC1CC1)N1CCCCC1	-4	-3	-1.7
C[C@@H]1CCCCO[C@@H](CN(C)C(=O)c2ccccc2)[C@@H](C)CN([C@H](C)CO)C(=O)c2cc(NC(=O)C3CCCCC3)ccc2O1	1	-1	1.4
COc1ccc(S(=O)(=O)Nc2ccc3c(c2)C(=O)N([C@H](C)CO)C[C@H](C)[C@@H](CN(C)S(=O)(=O)c2ccc(Cl)cc2)OCCCC[C@H](C)O3)cc1	2	-4	6.1
CCC(=O)N1CC2(C1)[C@H](c1ccc(-c3ccc(C)cc3)cc1)[C@@H](CO)N2S(=O)(=O)CC	3	3	0.7
C[C@H]1CN([C@@H](C)CO)C(=O)c2cccc(NS(=O)(=O)c3ccc(F)cc3)c2O[C@@H]1CN(C)S(=O)(=O)c1cccs1	-1	0	-1.0
C[C@@H]1CN([C@H](C)CO)C(=O)c2cc(C3=CCCC3)cnc2O[C@@H]1CN(C)C(=O)Nc1ccc(C(F)(F)F)cc1	6	5	0.8
CCNC(=O)[C@@H]1[C@@H](CO)[C@@H]2Cn3c(ccc(-c4ccc(OC)cc4)c3=O)[C@H]1N2S(C)(=O)=O	1	1	-0.3
CO[C@@H](CN(C)Cc1ccc2c(c1)OCO2)[C@@H](C)CN(C(=O)c1ccccc1)[C@H](C)CO	-5	-3	-2.3
Cc1noc(C)c1S(=O)(=O)N(C)C[C@@H]1OCc2ccccc2-c2c(n(C)c3ccccc23)C(=O)N([C@@H](C)CO)C[C@@H]1C	?	.	.
COCC(=O)N1CC[C@@H]2[C@@H](CO)N(C)c3ccc(-c4cccc(F)c4)cc3[C@@H]21	16	13	2.1
CC(=O)N1CC2(C1)[C@H](c1ccc(-c3ccc(C#N)cc3)cc1)[C@H](CO)N2CCC(F)(F)F	-8	-8	-0.9
COc1ccccc1S(=O)(=O)N[C@H]1CC[C@H](CCn2cc(C3CCCCC3)nn2)O[C@H]1CO	2	0	1.9
C[C@H](CO)N1C[C@H](C)[C@H](CN(C)S(=O)(=O)c2cccc(F)c2)OCc2cn(nn2)CCCC1=O	4	7	-2.5
N#Cc1cccc(-c2ccc3c(c2)[C@H]2[C@H](CCN2C(=O)c2ccncc2)[C@H](CO)N3)c1	?	.	.
COC(=O)C[C@H]1C[C@@H]2c3cc(N)ccc3O[C@@H]2[C@H](CO)O1	0	-7	6.9
O=C(C[C@H]1CC[C@H]2[C@@H](COC[C@@H](O)CN2C(=O)c2cc(Cl)cc(Cl)c2)O1)N1CCc2ccccc2C1	?	.	.
C[C@@H]1CN([C@@H](C)CO)C(=O)c2cc(NC(=O)Nc3ccc(F)cc3)ccc2O[C@@H](C)CCCCO[C@@H]1CN(C)Cc1ccccc1	3	5	-1.6
C[C@H]1CN([C@@H](C)CO)C(=O)c2cccc(NS(=O)(=O)c3ccc(Cl)cc3)c2O[C@@H]1CN(C)Cc1ccc(C(=O)Nc2ccccc2N)cc1	-1	2	-2.9
CCC(=O)NC[C@H]1[C@H](c2ccc(C3=CCCC3)cc2)[C@H](CO)N1C(=O)C1CC1	-2	-1	-0.9
C[C@H](NC(=O)[C@H]1[C@H](CO)[C@H]2Cn3c(cccc3=O)[C@H]2N1CC1CC1)c1ccccc1	5	18	-13
COc1ccc(NC(=O)Nc2cccc3c2O[C@@H](CN(C)S(=O)(=O)c2cccs2)[C@H](C)CN([C@H](C)CO)C3=O)cc1	-1	0	-0.3
O=C(c1ccccn1)N1C[C@@H]2[C@H](c3ccccc31)[C@@H](CO)N2C(=O)Nc1ccccc1	-1	-3	2.1
O=C(C[C@@H]1CC[C@@H](NS(=O)(=O)c2cccc(F)c2)[C@@H](CO)O1)NCc1ccc2c(c1)OCO2	-1	-4	2.8
C[C@H](CO)N1C[C@H](C)[C@@H](CN(C)C(=O)Nc2ccc3c(c2)OCO3)Oc2ccc(NC(=O)Cn3cnnn3)cc2C1=O	4	1	2.4
CCCC(=O)N1CC2(CN(Cc3nccs3)C2)c2c([nH]c3cc(OC)ccc23)[C@H]1CO	12	5	6.6

An excerpt from above in order of number of heavy atoms, low to high:
SMILES	DUX4 txn inh	DUX4 txn inh difference	DUX4 txn inh control
COC(=O)C[C@H]1C[C@@H]2c3cc(N)ccc3O[C@@H]2[C@H](CO)O1	0	-7	6.9
COCC(=O)N1CC[C@@H]2[C@@H](CO)N(C)c3ccc(-c4cccc(F)c4)cc3[C@@H]21	16	13	2.1
C[C@H](NC(=O)[C@H]1[C@H](CO)[C@H]2Cn3c(cccc3=O)[C@H]2N1CC1CC1)c1ccccc1	5	18	-13
N#Cc1cccc(-c2ccc3c(c2)[C@H]2[C@H](CCN2C(=O)c2ccncc2)[C@H](CO)N3)c1	?	.	.
CCNC(=O)[C@@H]1[C@@H](CO)[C@@H]2Cn3c(ccc(-c4ccc(OC)cc4)c3=O)[C@H]1N2S(C)(=O)=O	1	1	-0.3
O=C(C[C@@H]1CC[C@@H](NS(=O)(=O)c2cccc(F)c2)[C@@H](CO)O1)NCc1ccc2c(c1)OCO2	-1	-4	2.8
C[C@H](CO)N1C[C@H](C)[C@H](CN(C)S(=O)(=O)c2cccc(F)c2)OCc2cn(nn2)CCCC1=O	4	7	-2.5
O=C(C[C@H]1CC[C@H]2[C@@H](COC[C@@H](O)CN2C(=O)c2cc(Cl)cc(Cl)c2)O1)N1CCc2ccccc2C1	?	.	.
C[C@@H]1CN([C@H](C)CO)C(=O)c2cc(C3=CCCC3)cnc2O[C@@H]1CN(C)C(=O)Nc1ccc(C(F)(F)F)cc1	6	5	0.8
C[C@H]1CN([C@@H](C)CO)C(=O)c2cccc(NS(=O)(=O)c3ccc(F)cc3)c2O[C@@H]1CN(C)S(=O)(=O)c1cccs1	-1	0	-1.0
Cc1noc(C)c1S(=O)(=O)N(C)C[C@@H]1OCc2ccccc2-c2c(n(C)c3ccccc23)C(=O)N([C@@H](C)CO)C[C@@H]1C	?	.	.
C[C@@H]1CCCCO[C@@H](CN(C)C(=O)c2ccccc2)[C@@H](C)CN([C@H](C)CO)C(=O)c2cc(NC(=O)C3CCCCC3)ccc2O1	1	-1	1.4
C[C@@H]1CN([C@@H](C)CO)C(=O)c2cc(NC(=O)Nc3ccc(F)cc3)ccc2O[C@@H](C)CCCCO[C@@H]1CN(C)Cc1ccccc1	3	5	-1.6
C[C@H]1CN([C@@H](C)CO)C(=O)c2cccc(NS(=O)(=O)c3ccc(Cl)cc3)c2O[C@@H]1CN(C)Cc1ccc(C(=O)Nc2ccccc2N)cc1	-1	2	-2.9
COc1ccc(S(=O)(=O)Nc2ccc3c(c2)C(=O)N([C@H](C)CO)C[C@H](C)[C@@H](CN(C)S(=O)(=O)c2ccc(Cl)cc2)OCCCC[C@H](C)O3)cc1	2	-4	6.1

Two compounds picked at random from the list so far, as already listed:
SMILES	DUX4 txn inh	DUX4 txn inh difference	DUX4 txn inh control
C[C@@H]1CN([C@H](C)CO)C(=O)c2cc(C3=CCCC3)cnc2O[C@@H]1CN(C)C(=O)Nc1ccc(C(F)(F)F)cc1	6	5	0.8
C[C@H](CO)N1C[C@H](C)[C@@H](CN(C)C(=O)Nc2ccc3c(c2)OCO3)Oc2ccc(NC(=O)Cn3cnnn3)cc2C1=O	4	1	2.4

(more compounds)
SMILES	DUX4 txn inh	DUX4 txn inh difference	DUX4 txn inh control
CCCC#Cc1ccc([C@@H]2[C@H]3CN(Cc4ccncc4)CCCCN3[C@H]2CO)cc1	1	-10	12
O=C(C[C@H]1C=C[C@@H](NC(=O)c2cccnc2)[C@H](CO)O1)NCc1ccncn1	10	6	3.5
Cc1noc(C)c1NC(=O)Nc1ccc2c(c1)C(=O)N([C@@H](C)CO)C[C@H](C)[C@H](CN(C)Cc1ccc3c(c1)OCO3)OCCCC[C@@H](C)O2	1	1	-0.6
N#C[C@@H]1[C@H](c2ccc(C3=CCCC3)cc2)[C@@H](CO)N1C(=O)Cc1ccncc1	3	4	-0.8
O=C(Cc1ccncc1)Nc1ccc2c(c1)[C@H]1C[C@@H](CC(=O)N3CCc4ccccc4C3)O[C@H](CO)[C@H]1O2	-2	-7	4.9
O=C(c1ccc(F)cc1)N1CC(=O)N2[C@H](CO)[C@@H](c3ccc(C#CCC4CCCC4)cc3)[C@H]2C1	-7	-4	-3.3
C[C@H]1CN([C@@H](C)CO)C(=O)c2cc(NC(=O)Cc3cn(C)c4ccccc34)ccc2O[C@@H]1CN(C)C(=O)Nc1ccc(C(F)(F)F)cc1	3	0	3.2
COc1cccc(NC(=O)N2CC(=O)N3[C@@H](CO)[C@@H](c4ccc(Br)cc4)[C@@H]3C2)c1	4	3	0.5
COc1ccccc1CNC(=O)C[C@@H]1CC[C@@H]2[C@H](COC[C@H](O)CN2Cc2cccc(-c3ccncc3)c2)O1	?	.	.
C/C=C/c1ccc(C2[C@H]3CNC[C@@H]2N3Cc2nccs2)cc1 (stereo partly specified)	9&9	8&-2	0.8&11
COc1ccc(-c2ccc3c(c2)[C@@H]2[C@@H](CCN2C(=O)C2CCOCC2)[C@H](CO)N3C)cc1	1	9	-8.3
CCN1[C@@H]2Cn3c(ccc(-c4ccccc4F)c3=O)[C@H]1[C@@H](C(=O)N1CCOCC1)[C@@H]2CO	2	6	-3.2
CN(C)C(=O)C[C@@H]1C=C[C@@H](NC(=O)C2CCOCC2)[C@H](CO)O1	4	1	3.3
CCCNC(=O)C[C@H]1CC[C@H]2[C@@H](COC[C@H](O)CN2C(=O)c2cc(Cl)cc(Cl)c2)O1	-2	-11	8.8
CCCNC(=O)N1C[C@H](O)COC[C@@H]2O[C@H](CC(=O)N3CCN(C)CC3)CC[C@H]21	2	2	-0.6
CCCNC(=O)N1[C@H](CO)[C@@H](c2ccc(-c3ccccc3F)cc2)[C@@H]1C#N	1	5	-4.6
COc1ccccc1CN1CC[C@@H]2[C@@H](CO)Nc3ccc(-c4cccc(F)c4)cc3[C@@H]21	-24*	-29*	5.7*
C[C@H](CO)N1C[C@H](C)[C@H](CN(C)C(=O)C2CCCCC2)Oc2cc(C3=CCCCC3)ccc2S1(=O)=O	5	1	3.5
COc1ccccc1CN(C)C[C@H]1OCc2cnnn2CCCC(=O)N([C@H](C)CO)C[C@H]1C	5	3	2.1
CC(=O)Nc1ccc2c(c1)C(=O)N(C)[C@H]1CC[C@@H](CC(=O)NCCCN3CCOCC3)O[C@H]1CO2	-3	-3	-0.6
C/C=C/c1ccc([C@H]2[C@H](CO)N(C(=O)CC)[C@H]2CN(C)S(C)(=O)=O)cc1	0	-6	6.3

Screens (PubChem)

An excerpt; rates above refer to the full screens.
